LASV entry inh: Lassa virus entry inhibition | AID 540256 | Potency, µM (highest dose often 37.9 µM), inactives show at the highest dose activity change, negative = inhibition, actives largely listed as inhibitors | actives 1.2% (n = 300,000) | Lassa virus pseudotype entry inhibition, cell reporter; control for the full effect not named in the record; active means well fitted inhibition curve with a large enough effect; inconclusive means small, poorly fitted or top-dose-only effect, or effect the other way; inactive means flat fitted curve, though single readings scatter; tested in HEK293 cells; further: on the % scale 0 is the no-effect control and ±100 the full control effect; nearly all actives have a fitted effect of over 50% in size; luciferase read-out
SARS PLpro yeast: blocks SARS-CoV papain-like protease in a yeast assay | S. cerevisiae expressing SARS-CoV PLpro, growth rescue; control for the full effect not named in the record | Potency, µM (highest dose often 32.9 µM), inactives show at the highest dose activity, positive = growth rescue | actives 0.19% (n = 330,000) | AID 485353; active means well fitted rising curve with a large enough effect; inconclusive means small, poorly fitted or top-dose-only effect; inactive means no such curve, though single readings can be large or run the other way; further: 0% is about no effect; nearly all actives have a fitted effect of over 55% in size; growth read by luminescence after 48 h
Cruzain Triton: inhibitors of Trypanosoma cruzi cruzain with detergent; actives 0.43% (n = 200,000); AID 1478; Potency, µM, for the others: max response, negative = inhibition, hits mostly inhibitors; purified cruzain, Z-FR-AMC fluorescence, 0.01% Triton; P25779;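 further: plate controls were neutral wells for no effect and buffer without enzyme for full effect; nearly all actives have a fitted effect of over 40% in size; top concentration of the series not given in the record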
Target sequence (P25779 123-467 limits assumed): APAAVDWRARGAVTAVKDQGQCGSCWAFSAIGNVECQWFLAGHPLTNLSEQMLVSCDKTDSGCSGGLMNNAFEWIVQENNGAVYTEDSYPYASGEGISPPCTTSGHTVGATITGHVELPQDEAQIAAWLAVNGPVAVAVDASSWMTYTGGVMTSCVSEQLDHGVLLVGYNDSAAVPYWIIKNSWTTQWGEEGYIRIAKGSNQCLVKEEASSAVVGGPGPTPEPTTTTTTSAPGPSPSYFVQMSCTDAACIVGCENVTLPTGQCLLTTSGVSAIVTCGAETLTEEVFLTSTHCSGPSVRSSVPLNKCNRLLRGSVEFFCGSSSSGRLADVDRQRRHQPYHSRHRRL
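Cruzain (1.5 nM) preincubated 15 min at RT with compound in 100 mM sodium acetate pH 5.5, 5 mM DTT, 0.01% Triton X-100. Reaction started with 2 uM Z-FR-AMC; AMC fluorescence (ex 360/em 450 nm) change over 60 s gave rate.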
Cruzain noTriton: blocks cruzain activity in detergent-free assay; P25779; purified cruzain, Z-FR-AMC fluorescence, no detergent; Potency, µM, for the others: max response, negative = inhibition, actives largely listed as inhibitors; actives 2.3% (n = 200,000); AID 1476;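 further: plate controls were enzyme without inhibitor for no effect and buffer without enzyme for full effect; nearly all actives have a fitted effect of over 40% in size; top concentration of the series not given in the record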
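Purified cruzain at 1.5 nM, pre-incubated 15 min with compound at room temperature in 100 mM sodium acetate pH 5.5, 5 mM DTT, 0.00005% Triton X-100. Reaction started with 2 uM Z-FR-AMC; AMC fluorescence increase over 60 s gives rate.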
RE007 growth inh: less growth of the S. pombe RE007 Vpr strain | S. pombe RE007 Vpr strain, BacTiter-Glo ATP luminescence, 24 h; control for the full effect not named in the record | Potency, µM (highest dose often 92.2 µM), without a hit: at the highest dose activity change, negative = less growth | actives 0.21% (n = 360,000); active = well fitted falling curve with a large enough effect; inconclusive = small, poorly fitted or top-dose-only effect; inactive = no such curve, though single readings can be large or run the other way;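 further: on the % scale 0 is the no-effect control and ±100 the full control effect; nearly all actives have a fitted effect of over 50% in size; the assay follows cell death caused by Vpr and the record does not say whether a fall means rescue or toxicity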
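Fission yeast RE007 carrying one integrated HIV-1 vpr copy, seeded at OD 0.01 in PMG+AL medium with 23 nL pinned compound. Grown 24 h at 30 degrees; viability read by BacTiter-Glo luminescence after 5 min.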
Marburg entry inh: blocks Marburg virus binding to or entry into cells; Marburg virus pseudotyped entry inhibition, cell reporter; control for the full effect not named in the record; about a third of the inactives were read at about 46 µM; Potency, µM (titrated, usually from 37.8 µM), without a hit: top-dose activity change, negative = inhibition, actives largely listed as inhibitors; actives 1.8% (n = 300,000); active = well fitted inhibition curve with a large enough effect; inconclusive = small, poorly fitted or top-dose-only effect, or effect the other way; inactive = flat fitted curve, though single readings scatter; tested in HEK293 cells; about a fifth of its hits are not listed in these tables; further: on the % scale 0 is the no-effect control and ±100 the full control effect; luciferase read-out
StopGo reporter: FMDV 2A StopGo reporter, luciferase signal; human cells with a luciferase reporter of 2A StopGo recoding; control for the full effect not named in the record; Potency, µM (doses to about 57.9 µM), for the others: at the top dose signal change, negative = less light; actives 1.2% (n = 410,000); active = well fitted falling curve with a large enough effect; inconclusive = small, poorly fitted or top-dose-only effect; inactive = no such curve, though single readings can be large or run the other way; tested in HEK293T cells; further: on the % scale 0 is the no-effect control and ±100 the full control effect; nearly all actives have a fitted effect of over 45% in size; luciferase light after 4 h
NS1 inh: influenza NS1 inhibition; S. cerevisiae slowed by influenza A NS1, growth recovery by OD600; Potency, µM (titrated, usually from 46.1 µM), inactives show top-dose activity, positive = more growth; actives 0.4% (n = 270,000); active means well fitted rising curve with a large enough effect; inconclusive means small, poorly fitted or top-dose-only effect; inactive means no such curve, though single readings can be large or run the other way; further: nearly all actives have a fitted effect of over 50% in size
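A cell-based growth assay was used: compounds that relieve NS1-induced slow growth of budding yeast raise OD600. Assay medium was yeast nitrogen base with ammonium sulphate and -URA supplement, pH 6.0, with 2% galactose.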
* marks the source's active call; other numbers are inactive results; u = inconclusive; x = no result given; & = joins results of further samples; [ ] = remark or other dose. Unless noted, the call rests on the fitted dose curve; in most records, active means well fitted curve in the direction sought with a large enough effect; inconclusive means small, poorly fitted or top-dose-only effect, or another doubt; inactive means no such curve, though single readings can be large; an effect the other way counts as inactive or inconclusive. Potency means the concentration at half of the fitted maximal effect. No enrichment for hits; any-hit rate near 4.7%.

SMILES | LASV entry inh | SARS PLpro yeast | Cruzain Triton | Cruzain noTriton | RE007 growth inh | Marburg entry inh | StopGo reporter | NS1 inh
C=CCOc1ccc(C(=O)NC2CCCCC2)cc1 | 3% | -12% | 3.5% | 1% | -9% | u | 51%[activator] | -58%
Cc1ncsc1C(=O)N1N=C2/C(=C/c3ccccc3)CCCC2C1c1ccccc1 (stereo unspecified) | u | -12% | -10% | u | 8% | 11µM* | u | 10%
Cc1cc(=O)oc(C)c1C(=O)Nc1cnc2ccccc2c1 | u | -1% | 3.3% | 5% | 3% | -1% | 8% | -1%
O=C(NCc1n[nH]c(=S)n1-c1ccccc1)c1ccco1 | u | -10% | -1.9% | 4% | -12% | 1% | -2% | -26%
CN(C)c1ccc(C(CNC(=O)c2cccc(C(F)(F)F)c2)N2CCCC2)cc1 (stereo unspecified) | u | x | -0.8% | 2% | x | x | -21% | x
C/C(N)=C(/C#N)C(=O)CSc1nc2ccccc2c(=O)n1-c1ccc(C)cc1 | x | 11% | -2.7% | 15% | x | x | x | 5%
CN1CCN(C(=O)C2=C[C@@H](C3CCCCC3)C[C@@H](OCCCCO)O2)CC1 | x | 0% | x | x | -7% | x | -8% | -2%
O=C1NC(=O)C2(COC(c3ccccc3Cl)OC2)S1 (stereo unspecified) | -1% | -2% | -0.8% | 5% | 4% | -13% | -10% | -29%
COc1ccc2cc3cc(C(=O)NCc4ccco4)oc3nc2c1 | u | -5% | -8.0% | 6% | -17% | -13% | 10% | -11%
O=C(/C=C/c1ccc([N+](=O)[O-])cc1)c1cccnc1 | 1% | -95% | -1.6% | -13% | 16µM* | u | u | -23%
CN(C/C(O)=C(\C#N)c1ccccc1)C1CCCCC1 | 8% | 1% | -1.0% | -2% | -3% | u | 1% | -25%
CC1=C(C(=O)OCc2ccccc2)C(c2ccc([N+](=O)[O-])cc2)NC(=O)N1CCCCCC(=O)O (stereo unspecified) | -20% | -4% | -7.8%&-11% | u | -5% | 5% | -19% | 8%
CCCCCn1c(SCc2ccncc2)nc2cc(C(=O)NCc3ccco3)ccc2c1=O | -6% | -8% | -7.6% | 4% | 5% | -5%&-12% | u | -62%
CCOc1ccc(NC(=O)NCCCCc2ccccc2)cc1 | x | -6% | x | x | 6% | x | -15% | 4%
COc1ccccc1OCC(=O)Nc1nc(C)c(C)s1 | 13µM* | -5% | x | x | -5% | u | 32%[activator] | -17%
COc1ccc(S(=O)(=O)N(C)CC(=O)N2CCCCCC2)cc1 | 4% | x | x | x | -5% | u | -7% | 7%
CCOC(=O)CC1(C)NC(C(=O)O)C(C)(C)S1 (stereo unspecified) | 9% | x | x | x | 1% | 18% | u | x
CSCCC(N=C(NS(=O)(=O)c1ccc(Br)cc1)c1ccccc1)C(=O)O (stereo unspecified) | u | 2% | x | x | -25% | -8% | -5% | x
CCNc1nc(NC(C)(C)C)nc(SCC(N)=O)n1 | -28%[46.1 µM] | 0% | x | x | -12% | -8%[46.1 µM] | 7% | -2%
COC(=O)C(C)Sc1nnc2n(-c3cccc(C)c3)c(=O)c3c4c(sc3n12)CCCC4 (stereo unspecified) | x | 4% | -4.9% | 25% | 5% | x | -28% | -5%
COc1ccc(NC(=O)c2cc(C)no2)cc1 | x | 0% | x | x | 11% | x | 42%[activator] | 1%
CCOC(=O)CCCCC(=O)c1[nH]c(=O)[nH]c1CSc1nc(C)cc(=O)[nH]1 | -10% | 1% | -0.4% | -11% | 6% | 2% | x | 11%
OCC1O[C@H](O)C(Cl)C(O)C1O (stereo partly specified) | u | x | -1.5% | -4% | x | u | x | -3%
Cn1nnnc1SCC1=C(C(=O)O)N2C(=O)[C@@H](NC(=O)[C@H](O)c3ccccc3)[C@H]2SC1 | 5% | 1% | -8.1% | 7% | -14% | -2% | u | 7%
COc1ccc2nc(N3CCN(C(=O)c4ccc([N+](=O)[O-])o4)CC3)sc2c1 | u | -4% | x | x | u | u | -23% | x
COc1ccccc1NC(=O)COC(=O)c1ccc(S(=O)(=O)N2CCCCCC2)cc1 | 2% | 2% | x | x | 3% | 2% | 4% | x
CC(C(=O)Nc1sc2c(c1C#N)CCCCC2)N1C(=O)c2ccccc2C1=O (stereo unspecified) | 20% | 12% | -8.1% | u | -4% | u | -2% | 21%
COc1ccc(S(=O)(=O)N2CCC(C(=O)NC3CCCCC3)CC2)cc1OC | 3% | -5% | x | x | -6% | 21% | -17% | x
CCOC(=O)c1cc(OCC(=O)NC(C)C(C)C)cc(C(=O)OCC)c1 (stereo unspecified) | 1% | -8% | -2.0% | u | -9% | u | -2% | -5%
CCN(CC(=O)Nc1c(C(=O)OC)[nH]c2ccc(Cl)cc12)c1ccc2c(c1)OCO2 | 13µM* | -8% | -2.3% | -25% | 10% | u | -10% | -71%
COc1ccc(Nc2cc(C(=O)NCCCN3CCOCC3)c3ccccc3n2)cc1 | x | -1% | x | x | 1% | x | -20% | -4%
CC(C)(C)NC(=O)C(c1ccncc1)N(Cc1ccc(F)cc1)C(=O)c1ccc(-c2ccccc2)[nH]1 (stereo unspecified) | -22%[46.1 µM] | 10% | x | x | 1% | u | 18% | x
C/C(=N\N(Cc1ccccc1)c1ccccc1)c1ccncc1 | 13%[46.1 µM] | 6% | x | x | 92% | -25%[46.1 µM] | -22% | 11%
CCOc1ccc2[nH]c(=O)c(CN(CCO)C(=O)c3ccc(F)cc3)cc2c1 | -6% | 0% | -1.1% | 14% | 15% | -1% | -9% | 13%
O=C(Cc1c(F)cccc1Cl)Nc1cccc(S(=O)(=O)NC2=NCCCCC2)c1 | u | -7% | x | x | -1% | -2% | 7% | x
NC(=O)CSc1nnc(-c2ccc(S(=O)(=O)N3CCCCC3)cc2)n1-c1ccccc1 | -7% | 4% | 4.1% | u | -3% | 8% | x | 2%
Cc1nn(-c2ccccc2)c(Cl)c1/C=N/NC(=O)c1ccn[nH]1 | x | -2% | x | x | 1% | x | -7% | -7%
CC1CCC(NC(=O)c2ccc(CSc3nc4ccncc4n3Cc3ccc(F)cc3)cc2)CC1 (stereo unspecified) | -12%[46.1 µM] | x | -5.6% | u | x | u | u | x
CCN(CC)C(=O)c1ccccc1NS(=O)(=O)c1ccc(OC)c(C(=O)N2CCOCC2)c1 | 4% | -2% | x | x | 3% | -3%[46.1 µM] | -2% | -32%
COc1ccc(N2CCN(C(=O)Cn3ncc4c([nH]c5ccccc54)c3=O)CC2)cc1 | x | 13% | x | x | 10% | x | 35% | -10%
COc1ccc(-c2cc(C(F)(F)F)nc(NC3CCCC3)n2)cc1OC | u | 0% | -9.6% | u | -4% | u | -18% | 12%
CCOC(=O)CC1C(=O)NCCN1C(=O)c1cccc(C(F)(F)F)c1 (stereo unspecified) | 1% | 11% | 5.9% | 1% | 6% | -6% | u | 3%
Cc1cc(N2CCN(CC(O)C(F)(F)F)CC2)c2ccccc2n1 (stereo unspecified) | -10%[46.1 µM] | 1% | x | x | -20% | u | -10% | 3%
Cc1cnc(NC(=O)c2ccc3c(c2)C(=O)N(Cc2ccco2)C3=O)s1 | 13% | 0% | -4.6% | -5% | -9% | 2% | 3% | 12%
CN(c1ccccc1)S(=O)(=O)c1ccc(NC(=O)c2cc(=O)c3ccccc3o2)cc1 | -21%[46.1 µM] | x | 1.5% | -5% | x | 0%[46.1 µM] | u | x
O=C(O)c1ccc(-c2nc3scc(-c4ccccc4)c3c(=O)[nH]2)cc1 | 17%[46.1 µM] | -1% | x | x | 11% | 10%[46.1 µM] | -4% | 1%
COc1cccc2cc(C(=O)NCC3CCCO3)c(=O)oc12 (stereo unspecified) | 8% | -2% | 0.3% | -6% | 15% | u | 67%[activator] | 0%
COC(=O)Cc1ccc(OC(=O)CCS(=O)(=O)c2ccc(C)cc2)cc1 | -1% | x | x | x | 4% | 12% | -5% | x
CS(=O)(=O)c1ccc(-c2cccc(NC(=O)c3ccco3)c2)nn1 | 6% | 5% | x | x | 8% | -12% | -7% | x
CC(C)(C)C(=O)Nc1cccc(-c2nnc(-c3cccc(NC(=O)C(C)(C)C)c3)o2)c1 | -20% | 13% | -3.7% | u | -16% | u | 0% | -2%
CC(C)c1ccc(/C=C/C(=O)NCc2ccc(S(N)(=O)=O)cc2)cc1 | -8% | 0% | x | x | 6% | -2%[46.1 µM] | 5% | -2%
CC(C)C[C@@H](CC#N)N1CCN(Cc2ccccc2)CCC1=O | x | -14% | x | x | -3% | x | -10% | 14%
O=C(CSc1nnc(NC(=O)c2ccco2)s1)Nc1ccccc1F | 15% | -2% | x | x | -24% | 4% | 41%[activator] | 10%
Cn1nc(C(=O)N2CCCC2)c2ccccc2c1=O | -9% | 4% | 2.6% | 4% | -1% | u | 0% | -1%
COc1ccc(N(CC(=O)N2CCc3ccccc32)S(=O)(=O)c2c(C)noc2C)cc1 | 16% | 2% | 1.1% | 18% | 1% | -27% | 10% | u
COc1cccc(/C=N/NC(=O)NC2CCCCC2)c1O | x | -1% | x | x | 6% | x | 26% | -7%

Among those listed so far, three have a thiophene ring, fused or not:
SMILES | LASV entry inh | SARS PLpro yeast | Cruzain Triton | Cruzain noTriton | RE007 growth inh | Marburg entry inh | StopGo reporter | NS1 inh
COC(=O)C(C)Sc1nnc2n(-c3cccc(C)c3)c(=O)c3c4c(sc3n12)CCCC4 (stereo unspecified) | x | 4% | -4.9% | 25% | 5% | x | -28% | -5%
CC(C(=O)Nc1sc2c(c1C#N)CCCCC2)N1C(=O)c2ccccc2C1=O (stereo unspecified) | 20% | 12% | -8.1% | u | -4% | u | -2% | 21%
O=C(O)c1ccc(-c2nc3scc(-c4ccccc4)c3c(=O)[nH]2)cc1 | 17%[46.1 µM] | -1% | x | x | 11% | 10%[46.1 µM] | -4% | 1%
